LT uptake inh: qHTS Assay for Anthrax Lethal Toxin Internalization; Potency, µM (series often up to 40 µM), without a hit: top-dose activity change, negative = inhibition, usual class: inhibitors; Cells, anthrax lethal toxin internalization, FRET ratio (460/530); hit rate 0.67% among 70,000; active = well fitted falling ratio curve with the 530 nm signal flat; inconclusive = other ratio curves, or a change in one channel alone; inactive = flat curves in the ratio and both channels; the % refers to the ratio; note: % is set by controls: 0 for no effect and ±100 for the full control effect; nearly all actives have a fitted effect of over 50% in size; tested in ME-180 cells; beta-lactamase reporter
SmPrx2 inh: Schistosoma Mansoni Peroxiredoxins (Prx2) | S. mansoni Prx2 activity coupled to TGR/GSH (TGR is thioredoxin glutathione reductase), NADPH fluorescence loss, qHTS; some inactives read as strong as hits | Schistosoma mansoni peroxiredoxin 2 (Prx2) | hit rate 0.07% among 65,000 | Potency, µM | AID 448, 2006; active means full or partial inhibition curve with a strong effect at the top dose; inconclusive means weaker partial or single-point curve; inactive means no accepted curve; note: series up to 57 µM; many of its hits are not listed in these tables
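Prx2 activity was followed as the loss of NADPH fluorescence (ex 365/em 450 nm), read every 30 sec for 8 min after H2O2 start. The enzyme mix (50 nM Prx2, 25 nM TGR, GSH, NADPH; pH 7.4 phosphate buffer) was incubated with compound for 15 min at room temperature first.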
* hit, by the source's call; ? = inconclusive; nt = not tested or not shown; & = joins results of further samples; [ ] = remark or other dose. Potency is the fitted concentration of half-maximal effect. A portion of the library; rates above refer to the full screens.

smiles,LT uptake inh,SmPrx2 inh
Cc1cc(N2C(=O)CC(Cc3ccccc3)C2=O)no1 (configuration not stated),7%,>57
CCCNC(=O)c1noc2c1CCc1ccccc1-2,-6%,>57
Cc1ccc(OCCN2C(=O)OC(C)(C)C2(C)O)cc1 (configuration not stated),12%,>57
O=C(CNCCC1=CCCCC1)Nc1ccccc1N1CCCCC1,-19%,>57
CCCn1c(SCCc2ccccc2)nc2c1c(=O)[nH]c(=O)n2C,1%,>57
Cc1cc(C)n(C(=O)c2ccc(S(=O)(=O)N3CCCC3)cc2)n1,9%,>57
Cc1ccc(S(=O)(=O)N2CN3CCN(C3)C2)cc1,1%,>57
O=C1CC(SCCO)C(=O)N1c1ccc(Oc2ccccc2)cc1 (configuration not stated),-2%,>57
COc1ccc2c3c([nH]c2c1)[C@H]1C[C@@H]2[C@@H](C[C@@H](O)[C@H](OC)[C@H]2C(=O)O)CN1CC3,-13%[8 µM],>57
CCOC(=O)CNC(=O)COc1ccc(Cl)cc1Br,26%,>57
COC(=O)C1=CN(C2CC2)C=C(C(=O)OC)C1c1ccc(C(=O)OC)cc1,?,nt
COc1cccc(C2=NOC(C(=O)NC3CCCCC3)C2)c1 (configuration not stated),12%,>57
COc1ccc(N2CCN(C(CNC(=O)c3ccc4c(c3)OCO4)c3cccnc3)CC2)cc1 (configuration not stated),6%,>57
NC(=O)CCCC1=NS(=O)(=O)c2ccccc2N1,?,>57
CC(=O)NCCOc1nc(N(C)C)nc(N(C)C)n1,12%,>57
CSc1nsc(SCC(=O)NC2CCCCC2)n1,-22%,>57
N#Cc1cc(Cl)c(N2CCOCC2)cc1C#N,-1%,>57
COc1ccccc1CN1CC[C@@]2(CCCN(S(=O)(=O)c3ccccc3)C2)C1,15%,>57
CCOC(=O)c1ccc(NC(=O)CN2C(=O)CSC2=O)cc1,-3%,nt
COc1ccc(N2CCN(C(=O)COc3ccc4ccccc4c3)CC2)cc1,12%,?
O=C(c1cc(C(F)(F)F)cc(C(F)(F)F)c1)N1CCC2(CCN(Cc3nccs3)CC2)CC1,?,>57
CCn1c(=O)c(C(=O)NCCNCCO)c(O)c2ccccc21,-1%,>57
CCOc1ccccc1CNC(=O)C1CCCN(c2nc3ccccc3o2)C1 (configuration not stated),-8%,>57
CC1CCN(CCCn2c(=S)[nH]c3ccccc3c2=O)CC1,4%,nt
CCc1ccc(NC(=O)CCNS(=O)(=O)c2cccc3nonc23)cc1,-18%,>57
Cc1ccc2nc(NC(=O)CSc3nc4c(c(=O)n3C)SC(C)C4)sc2c1 (configuration not stated),5%,>57
CCCCN(CC)C(=O)c1cccc(Cl)c1,5%,>57
Cc1c(O)c(=O)c2ccccc2n1C,-11%[8 µM],nt
c1ccc(NC2=Nc3ccccc3CS2)cc1,3%,>57
COCCNS(=O)(=O)c1ccc(SC)cc1,-11%,>57
Cc1ccc(-c2c(C(=O)N3CCOCC3)oc(=O)c3ccccc23)cc1,-3%,>57
CN(C)c1ncc2nc(-c3cccs3)c(=O)n(CCC#N)c2n1,?,>57
CCOc1ccc(NCc2nnc(SCC(=O)Nc3cc(C)on3)n2-c2ccccc2OC)cc1,?,>57
O=C1Nc2ccccc2OC1CC(=O)N1CCOCC1 (configuration not stated),-5%,>57
CCn1c(NCc2cccs2)nc2ccccc21,-4%,>57
C[C@@H]1C[C@@H]2[C@H]3CCC4=CC(=O)C=C[C@]4(C)[C@]3(Cl)[C@@H](O)C[C@@]2(C)[C@@]1(O)C(=O)CO,-10%,>57
COc1ccccc1CNc1cc(-c2c(C)noc2C)ncn1,16%,>57
COc1ccc(-c2noc(CCC(=O)Nc3nc4ccccc4s3)n2)cc1,-21%,>57
CCOC(=O)CNC(=O)c1cc(-c2ccc3c(c2)OCCO3)oc1C,-5%,>57
Cc1noc(C)c1COC(=O)c1cc2c3ccccc3n(C)c2s1,-24%,>57
Cc1cnc(-c2nnc(N(C)C(=O)C3CCCO3)s2)cn1 (configuration not stated),2%,>57
Cc1ccc(CNC(=O)C2CCN(S(=O)(=O)N3CCOCC3)CC2)cc1,11%,>57
COc1cc(-c2noc(-c3cccs3)n2)cc(OC)c1OC,-28%,>57
Cc1cc(C)nc(-n2nc(C)cc2NC(=O)CN2CCC(C)CC2)n1,9%,>57
O=C(/C=C/Nc1ccccc1Br)c1ccccn1,-12%,>57
Cc1cc(C)n(-c2nnc3n2N=C(c2ccccc2)CS3)n1,-7%,>57
N#Cc1nc(-c2ccccc2F)oc1NCCN1CCOCC1,9%,>57
Cn1c(CC(=O)Nc2ccccc2)nnc1SCC(=O)c1ccccc1,?,>57
CCOCCCNC(=O)C(NC(=O)c1ccc(=O)[nH]c1)c1ccccc1 (configuration not stated),8%,>57
Cc1nc(-c2ccc(C(=O)O)cc2)cs1,?,>57
COC(=O)c1ccc(C)c(NS(=O)(=O)c2ccc(NC(C)=O)cc2)c1,-4%,nt
c1cc(C2N3CCCN2CC3)ccn1 (configuration not stated),-6%[8 µM],>57
O=C(Cn1cc2c(n1)CCCCC2)N1CCc2ccccc21,?,>57
Cc1ccc(S(=O)(=O)N2C3C=CC(C3)C2C(=O)O)cc1 (configuration not stated),2%,>57
CCN1CCN(Cc2nc3c(c(=O)n(C)c(=O)n3C)n2Cc2cccc3ccccc23)CC1,-4%,>57
COc1ccc(C(=O)NC(=O)Nc2cc(C)ccn2)cc1,-5%,?
O=C(c1cn(-c2ccccc2)nc1-c1cccnc1)N1CCCCC1,2%,>57
Cc1cccc(N2CCN(S(=O)(=O)c3cnc[nH]3)CC2)c1C,1%,>57
CCn1c(SCc2nc(-c3ccccc3)no2)nc2ccccc21,-17%,>57
CCOC(=O)Cn1c(=O)c2c(nc3n2CCCCN3c2ccc(OCC)cc2)n(C)c1=O,11%,>57

(list continues)
smiles,LT uptake inh,SmPrx2 inh
CN(C)c1ncc2nc(-c3ccccc3)c(=O)n(Cc3ccc(F)cc3)c2n1,?,>57
N=C(N)c1ccc(/C=C\c2ccc(C(=N)N)cc2)cc1,2%[8 µM],>57
COc1cc(C(=O)N(CCCO)Cc2cc3ccc(C)c(C)c3[nH]c2=O)cc(OC)c1OC,-2%,>57
CCOc1ccccc1NC(=O)C1Cc2ccccc2CN1S(C)(=O)=O (configuration not stated),-5%,>57
C[C@@]1(C(NC(=O)Cc2ccc(C(F)(F)F)cc2)c2ccc(-c3ccccc3)cc2)C[C@H]1C1CCCCC1 (some centres not stated),-22%,>57
CCOC(=O)N1CCC(NC(=O)c2cc3c(C)nc4ccccc4c3o2)CC1,-26%,>57
CC[C@H](C)C(=O)O[C@@H]1[C@H](O)[C@@H]2[C@H](CN3C[C@@H](C)CC[C@@H]3[C@@]2(C)O)[C@@H]2C[C@@]34O[C@@]5(O)[C@@H](OC(=O)[C@](C)(O)CC)CC[C@@]3(C)[C@H]5[C@H](OC(C)=O)[C@@H](OC(C)=O)[C@H]4[C@]12O,4%[3.58 µM],>57
Cc1ccc(C)c(NC(=O)CCn2nc(C)cc2C)c1,8%,>57
O=c1c2[nH]c3ccc(F)cc3c2ncn1CCCN1CCOCC1,?,>57
COc1cccc(N2CC(O)=C(c3nc4ccccc4c(=O)[nH]3)C2=N)c1,-8%,>57
Cc1ccccc1C(=O)N1CCC(C(=O)Nc2ccc(F)cc2)CC1,nt,>57
CC(C)CC(=O)N=C1SC2CS(=O)(=O)CC2N1CCc1ccccc1 (configuration not stated),?,>57
COc1ccccc1Oc1ccccc1C(=O)O,-3%,nt
CN(CCCNC(=O)C1CCN(S(=O)(=O)c2cccc3nsnc23)CC1)Cc1ccccc1,-10%,>57
O=C(NCc1ccc2c(c1)OCO2)c1ccc(NC(=O)C2CCCO2)cc1 (configuration not stated),-3%,>57
COCCN1C(=O)C(=O)/C(=C(/O)c2cccc(OC)c2)C1c1ccc(C)o1 (configuration not stated),3%,>57
Cc1ccc2c(c1)C1CN(C)CCC1N2CC(=O)N(C)c1ccccc1 (configuration not stated),-10%,>57
O=C(COC(=O)c1cccs1)c1ccccc1,-2%,>57
N[C@@H](CCP(=O)(O)O)C(=O)O,-3%[8 µM],>57&>57
CCCCCC1=C2CNC(CCC)(C(=O)OC)C=C2C(C)C1=O (configuration not stated),-9%,>57
Nc1nc(-c2ccccc2)cs1,-11%,nt
COc1ccc(OC)c(NC(=O)CSc2nc(N)c(-c3ccccc3)c(=O)[nH]2)c1,-7%,>57
Cc1ccc2[nH]c(=O)c(CN(CC3CCCO3)S(=O)(=O)c3cccc4nsnc34)cc2c1 (configuration not stated),0%,>57
CCc1nnc(NC(=O)CSc2nc3ccccc3s2)s1,-6%,>57

3 compounds picked at random from the list so far, as already listed:
smiles,LT uptake inh,SmPrx2 inh
CCCCCC1=C2CNC(CCC)(C(=O)OC)C=C2C(C)C1=O (configuration not stated),-9%,>57
Cc1ccc2c(c1)C1CN(C)CCC1N2CC(=O)N(C)c1ccccc1 (configuration not stated),-10%,>57
CCc1nnc(NC(=O)CSc2nc3ccccc3s2)s1,-6%,>57

(continued)
smiles,LT uptake inh,SmPrx2 inh
COc1ccc(N2CCN(C(=O)CSc3ccccc3)CC2)cc1,-14%,nt
O=S(=O)(O)c1ccc(N=Nc2ccc3c(S(=O)(=O)O)cccc3c2O)c2ccccc12,-6%[8 µM],>57
C=CCn1c(Cc2cccs2)nnc1SCC(=O)Nc1ccc(OC)c(OC)c1,-10%,>57
Cc1nnc2sc(-c3cccc(NC(=O)c4ccc(-c5cccc(Cl)c5)o4)c3)nn12,-14%,nt
Cc1ccc(S(=O)(=O)N2CCCN(S(=O)(=O)c3ccc(C(F)(F)F)cc3)CC2)cc1,-13%,>57
CCC(c1nnnn1CCOC)N1CCN(Cc2ccccc2)CC1 (configuration not stated),?,>57
COc1cccc(-c2nnc(SCC(=O)OC(C)C)n2N)c1,4%,>57
Cc1ccccc1CS(=O)(=O)Cc1ccc(C(=O)N2CCC3(CC2)OCCO3)o1,6%,>57
CCc1ccc2[nH]c(=O)c(CN(CCCN3CCOCC3)C(=O)Nc3ccccc3)cc2c1,2%,>57
O=C(c1cccc(Cl)c1)N1CCN(Cc2ccccc2F)CC1,1%,>57
C=C(C)c1ccccc1,?,nt
O=C(CCN1C(=O)COc2ccccc21)NCc1ccco1,?,>57
CCc1c2c(nc3cccc(SC)c13)COC2,-3%,>57
O=C(Nc1ccc2c(c1)OCO2)C1CCCN(c2nc3ccccc3s2)C1 (configuration not stated),-16%,>57
Cc1cc(C)n2nc(SCn3nnc4ccccc4c3=O)nc2n1,2%,>57
c1ccc(Nc2ncnc3ccc(-c4ccoc4)cc23)cc1,?,nt
NC(N)=NC[C@@H]1COC2(CCCCC2)O1,-4%[3.58 µM],>57
CN1CCN(c2ncc3nc(-c4ccccc4)c(=O)n(-c4ccccc4)c3n2)CC1,?,>57
CCOC(=O)c1oc2cccc(O)c2c1CN1CCOCC1,-15%,>57
C[C@@H](C(=O)NCc1ccccn1)[C@H]1C[C@]1(C)[C@H](NC(=O)OCc1ccccc1)c1ccccc1,-28%,>57
CN(C)CCN(C)Cc1ccc2c(c1)Cc1ccccc1-2,7%,nt
Cc1nnc(NC2(C(F)(F)F)C(=O)Nc3c2c(=O)n(C)c(=O)n3C)s1 (configuration not stated),nt,>57
Cn1c(=O)n(C/C=C/c2ccccc2)c(=O)c2c1nc1n2CCCN1c1ccc(F)cc1,8%,>57
COc1ccccc1-c1nccc(NCc2cccs2)n1,-9%,nt
CCOC(=O)N1CCN(C(=O)c2cnsn2)CC1,-12%,>57
CC(C)c1nc(SCC(=O)Nc2ccc3c(c2)OCCO3)c2c(=O)n(C)c(=O)n(C)c2n1,-6%,>57
N#Cc1nc(-c2ccc(OCc3ccccc3)cc2)oc1NCCCN1CCOCC1,13µM*,>57
CCOc1cc(-c2noc(CCC(=O)N3CCOCC3)n2)ccc1OC,?,>57
COc1ccc(Cl)cc1C(=O)NCCc1ccc(S(=O)(=O)NC(=O)NC2CCCCC2)cc1,5%,>57&>57&>57
Cc1ccc(S(=O)(=O)N2CCCC2C(=O)n2nc(C)cc2C)cc1 (configuration not stated),?,>57
CN(C)c1ccc(C(=S)N2CCOCC2)cc1,-4%,nt
COc1ccc(-n2c(Cc3cccn3C)nnc2SCC(=O)Nc2cccc(F)c2)cc1,?,>57
N#Cc1cccc(NC(=O)NCCc2c[nH]c3ccccc23)c1,13µM*,>57
CCC(C)(C)NC(=O)C(c1ccco1)N(C(=O)c1csnn1)c1cccc(F)c1 (configuration not stated),?,>57
Brc1ccc(-c2noc(COc3ccc4c(c3)CCC4)n2)o1,?,>57
Cc1cc(C)c2c(CC(=O)Nc3nccs3)coc2c1,-17%,>57
Nc1cc(N)nc(SCCOc2ccccc2F)n1,-3%,>57

Bioassay records as filed in PubChem.
